Source: PubChem BioAssay
Mtb hypoxia rep – PubChem AID 1159583; hit rate 0.1% among 300,000; M. tuberculosis hypoxia-regulated fluorescent reporter, fluorescence; fluorescence inhibition, % (test concentration not listed);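 active = 35 to 45% if threefold the growth effect, above 45% if 1.5-fold the growth effect; inactive = the rest, general growth blockers included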;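 note: wells of about 50 µL received 100 nL stock; 0% = vehicle wells and 100% = reference inhibitor wells; whole bacteria with a GFP reporter of the hypoxia response; strong numbers were not always called active; many hits fall short of the cut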
PrP 5UTR inh – inhibition of PrP 5' UTR reporter expression; inhibition, % (no concentration beside the values); cell-based PrP 5' UTR mRNA reporter, plate reader; AID 488862, 2010; hit rate 0.35% among 340,000;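 active = every replicate at 50% or more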;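 note: 0 = median of the neutral control wells; tested in H4 reporter cells; numbers are from one replicate; inactives centre near -14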
BJeLR lethal – MLPCN primary cell-based screen for lethality selective to Ras in HRASV12 cells | BJeLR (HRASV12) viability, CellTiter-Glo ATP luminescence, 48 h; reference of the scale not given here | inhibition, % (test concentration not listed) | hit rate 0.17% among 300,000;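 active = replicate mean above 50%; inconclusive = above 50% but judged a plate artefact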;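 note: 50 nL library stock added to about 25 µL; numbers are from one replicate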
Sa ugtP lethal – growth inhibition of ugtP-null S. aureus, primary screen, RN4220 ugtP deletion, OD600; 16 h; some inactives read as strong as hits; growth inhibition, % (concentration not given with the values); hit rate 0.54% among 330,000; AID 1259309, 2017;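 active = z-score under -3 and OD600 up to 0.15 on both plates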;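 note: plate controls were untreated wells for no effect and antibiotic for full effect; wells of about 80 µL received 100 nL stock; the first replicate is given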
Sa RN4220 lethal – growth inhibition of S. aureus RN4220, primary screen, OD600; 16 h; AID 1259311, 2017; hit rate 0.33% among 330,000; inhibition, % (concentration not given with the values);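 active = z-score of -3 or lower and OD600 up to 0.18 on both plates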;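 note: plate controls were untreated cells for no effect and reference antibiotic for full effect; stock transfer was 100 nL into about 80 µL; one replicate is shown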
Bead autofluor – compound fluorescence in toxin protease inhibitor counterscreen; compound autofluorescence counterscreen, microsphere flow cytometry; stronger effect = higher value; fluorescence intensity (concentration not given with the values); hit rate 3.1% among 360,000;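 active = at least 3 SD above the mean of all compounds, about 16000 in these data; inconclusive = too few beads counted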;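 note: 100 nL of 1 mM stock went into each well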
Mtb hypoxia rep growth – recorded beside Mtb hypoxia rep, whose call it bears; growth inhibition, %; measured here: M. tuberculosis growth (absorbance);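 0% = vehicle and 100% = reference antibiotic; read after six days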
An asterisk follows results filed as active; ? = inconclusive; / = not tested or not shown.

SMILES	Mtb hypoxia rep	Mtb hypoxia rep growth	PrP 5UTR inh	BJeLR lethal	Sa ugtP lethal	Sa RN4220 lethal	Bead autofluor
CC1(c2nnc(-c3ccc(Cl)cc3)o2)CC(c2c(Cl)cccc2Cl)=NO1 (stereo unspecified)	10	7	-17	-4	22	21	3993
O=C(Nc1nc2c(F)cccc2s1)c1ccco1	-1	8	-81	14	-13	-4.8	5492
Fc1ccccc1-n1c(-c2ccc3ccccc3n2)n[nH]c1=S	8	5	-41	3	0	-6.8	4552
O=C(O)CSc1c(O)c2ccccc2[nH]c1=O	6	8	-22	3	-4	-0.4	2238
O=C(c1cccc(Cl)c1)N1CCC(c2nc3ccccc3[nH]2)CC1	/	/	-17	-12	/	/	5433
O=C(Nc1ccc(OC(F)(F)F)cc1)c1ccc(S(=O)(=O)N2CCOCC2)o1	4	5	1	-10	0	0.8	5861
CC(C)c1nnc(NC(=O)C2CCN(C(=O)Nc3ccccc3)CC2)s1	2	11	-22	-5	6	1.7	5146
COc1ccc(-c2cn(-c3ccccc3)nc2C(=O)O)cc1OC	7	-5	-31	3	5	2.9	3518
CCN(CC(=O)Nc1c(F)cccc1F)C(=O)Cc1ccc2c(c1)CCC2	3	-2	0	-6	13	5.6	/
CNC(=O)C(=O)NCC1CCCN1S(=O)(=O)c1cccs1 (stereo unspecified)	7	6	-14	0	-2	0.1	?
CCOc1ccc(N2C(=O)CC(NCC#N)C2=O)cc1 (stereo unspecified)	-2	-7	-34	4	4	4.6	4068
Cc1ccc(S(=O)(=O)N2CCOCC2)cc1C(=O)NC1CCSc2ccccc21 (stereo unspecified)	2	-3	-16	2	2	0.1	5997
Cc1ccccc1NC(=O)Cc1nc(COC(=O)c2cccc([N+](=O)[O-])c2)cs1	-9	2	11	-9	-3	-2.5	6277
COc1ccc(OC)c2[nH]c(C(=O)N/N=C/c3ccccc3O)cc12	/	/	13	28	/	/	4082
CC(=O)n1cc(/C=N/NC(=O)c2ccc(Cl)cc2)c2ccccc21	/	/	-16	-3	/	/	3886
O=C(Nc1nc(-c2cc3ccccc3oc2=O)cs1)c1ccco1	4	3	-22	0	-1	-0.7	4355
Cc1ccc(NC(=S)N(Cc2cccc(Br)c2)CC2CCC(C(=O)O)CC2)cc1Cl (stereo unspecified)	-7	8	5	3	-6	11	4466
CCOc1cc(C(=O)NCC(=O)N/N=C/c2sccc2C)cc(OCC)c1OCC	/	/	-42	0	/	/	3384
C[N+]12CN3CN(CN(C3)C1)C2	20	13	-14	-11	4	4.7	4387
CCOC(=O)c1nn(-c2ccc(F)cc2)c(-c2ccccc2)c1C(=O)c1ccccc1	-4	-2	3	0	5	-9.5	2380
O=S(=O)(Nc1cc(S(=O)(=O)N2CCOCC2)ccc1NCC1CCCO1)c1ccc(F)cc1 (stereo unspecified)	8	-1	1	/	3	9.5	5498
Nc1ccc2c(c1)C(=O)c1ccc(Br)cc1-2	6	0	-15	/	-4	3.5	4007
COc1ccc2c(c1)c(C(=O)N/N=C/c1ccc(Cl)cc1)c(C)n2C	/	/	-5	-10	/	/	4275
O=C1CCCN1CCCNc1ncnc2sccc12	1	12	-23	3	8	-0.3	3235
CC1CCCC(C)N1C(=O)CSc1nnnn1Cc1ccccc1 (stereo unspecified)	/	/	-25	6	3	1.6	4897
CC(C)[C@]12CC(=O)[C@H](C)[C@H]1C2	3	1	-3	/	5	3.8	4119
CN(C)S(=O)(=O)Nc1ccc(C(=O)O)cc1	16	9	-23	-6	3	3.0	21783*
CN1CCN(CCCNC(=O)CCCOc2cc(=O)n(C)c3ccccc23)CC1	17	12	-69	-3	1	0.4	10632
COc1ccc(NC(=O)NNC(=O)C(O)(c2ccccc2)c2ccccc2)cc1	14	25	-18	-6	5	0.3	?
COc1cc(/C=N/N=C(/N)c2nonc2N)cc(Br)c1OCc1ccccc1C	/	/	-4	-22	/	/	4740

Next section, overlapping the part above by 2 compounds.
SMILES	Mtb hypoxia rep	Mtb hypoxia rep growth	PrP 5UTR inh	BJeLR lethal	Sa ugtP lethal	Sa RN4220 lethal	Bead autofluor
COc1ccc(NC(=O)NNC(=O)C(O)(c2ccccc2)c2ccccc2)cc1	14	25	-18	-6	5	0.3	?
COc1cc(/C=N/N=C(/N)c2nonc2N)cc(Br)c1OCc1ccccc1C	/	/	-4	-22	/	/	4740
CC(NC(=O)C(C)(C)C)c1nc2ccccc2n1C (stereo unspecified)	-1	6	-27	4	-11	-4.4	8817
C=CCSc1nnc2c(n1)OC(c1cccnc1)Nc1ccccc1-2 (stereo unspecified)	/	/	-13	0	-1	2.9	3498
Cc1[nH]nc2cn[nH]c12	4	4	/	-5	2	1.5	10773
CCc1nc(N2CCCC2)c(C#N)c2c1CCCC2	14	3	-14	-6	82	2.6	3446
COc1ccc(NC(=O)CC(C)=NNC(=O)C(=O)NC2CCCCC2)c(OC)c1	3	-4	/	/	-2	-0.5	/
Cc1ccccc1NS(=O)(=O)c1ccc(OCC(=O)N2CCCC2)cc1	/	/	-4	-2	-1	-4.3	2920
Cc1onc(-c2ccccc2)c1C(=O)Nc1ccc(N2CCOCC2)cc1	18	9	-14	-12	-4	9.0	8667
O=C(NCC(c1ccco1)N1CCOCC1)c1c(F)cccc1F (stereo unspecified)	2	-12	-21	9	6	0.2	?
COc1ccccc1Nc1nnc(SCC(=O)Nc2nc(-c3ccc(F)cc3)cs2)s1	8	7	-5	9	20	7.0	4524
Nc1cccc(C(=O)OCC(=O)Nc2cccc3c2C(=O)c2ccccc2C3=O)c1	-2	3	-5	6	1	12	2017
CN(Cc1c(O)ccc2c1oc(=O)c1ccccc12)C1CCCCC1	4	1	-14	3	-4	10	15856
O=[N+]([O-])c1ccc2nc(-c3ccccn3)[nH]c2c1	/	/	-74	2	/	/	3645
CC(C)c1ccc(-n2c(-c3ccccc3)c[n+]3c2CCc2ccccc2-3)cc1	/	/	-8	11	100*	96*	4490
COc1ccccc1N1CCN(C(=O)CCc2nnc3ccc(N4CCOCC4)nn23)CC1	18	1	-6	8	9	5.0	5253
C/C(=C\C(=S)Nc1ccccc1)Nc1ccccc1	9	6	-75	3	-3	3.8	2252
Br/C(C=NN1CCN(Cc2ccccc2)CC1)=C/c1ccccc1	-6	7	/	/	45	-11	/
O=C(NCCCn1ccnc1)c1ccc(Br)c(S(=O)(=O)N2CCOCC2)c1	6	4	-13	0	-1	0.5	9564
CCCCCCCN1N=C(C)C(C(=O)c2ccccc2)C1=O (stereo unspecified)	0	3	-9	0	22	42	3556
COc1cccc(C(=O)Nc2cccc(OCC(=O)c3ccccc3)c2)c1	3	6	-31	-2	-2	4.4	4764
CCCCOCCCn1cnc2c([nH]c3cc(OC)ccc32)c1=O	/	/	-9	-4	-8	3.6	5037
CSCCCNC(=S)N1CCN(c2ccc(C(C)=O)cc2)CC1	10	7	-6	1	8	2.0	14616
COC(=O)C1=C(C)N(CCCC(=O)O)C(=O)NC1c1ccccc1OS(=O)(=O)c1ccccc1[N+](=O)[O-] (stereo unspecified)	0	-1	-19	-10	1	5.0	2901
COc1ccc(C(=O)C2CCCN(C(=O)Cn3ccc(C)n3)C2)cc1OC (stereo unspecified)	10	3	-17	-2	9	-0.9	4462
CC1CCCC(C)N1/N=C/c1c[nH]c2ccc(Br)cc12 (stereo unspecified)	/	/	-7	6	/	/	3017
Cc1ccc(S(=O)(=O)Nc2c(O)c3ccccc3oc2=O)cc1	-19	1	-8	1	-4	0.6	5495
Cc1cc(CC(C)C)n(-c2nc3ccccc3c(=O)n2OCC(=O)N(C)C)n1	/	/	-17	/	-18	18	3699
COC(=O)C1=C(C)NC(C)=C(C(=O)OC)C1c1ccc(OC(=O)c2ccco2)cc1	10	3	4	-9	6	6.0	?
O=C(NCc1ccco1)c1sc2ccccc2c1Cl	17	12	-34	-3	1	14	2989
O=C1CC(=O)N(c2ccccc2)C(=O)N1c1ccccc1	-2	-3	-6	-5	0	0.8	3050
CS(=O)(=O)O/N=C1\CCCCC1c1ccc([N+](=O)[O-])cc1[N+](=O)[O-] (stereo unspecified)	/	/	-14	1	/	/	2967

Random excerpt: five entries already listed
SMILES	Mtb hypoxia rep	Mtb hypoxia rep growth	PrP 5UTR inh	BJeLR lethal	Sa ugtP lethal	Sa RN4220 lethal	Bead autofluor
Cc1ccccc1NS(=O)(=O)c1ccc(OCC(=O)N2CCCC2)cc1	/	/	-4	-2	-1	-4.3	2920
CC1CCCC(C)N1/N=C/c1c[nH]c2ccc(Br)cc12 (stereo unspecified)	/	/	-7	6	/	/	3017
CC(=O)n1cc(/C=N/NC(=O)c2ccc(Cl)cc2)c2ccccc21	/	/	-16	-3	/	/	3886
CS(=O)(=O)O/N=C1\CCCCC1c1ccc([N+](=O)[O-])cc1[N+](=O)[O-] (stereo unspecified)	/	/	-14	1	/	/	2967
COc1ccc(C(=O)C2CCCN(C(=O)Cn3ccc(C)n3)C2)cc1OC (stereo unspecified)	10	3	-17	-2	9	-0.9	4462

Next structures
SMILES	Mtb hypoxia rep	Mtb hypoxia rep growth	PrP 5UTR inh	BJeLR lethal	Sa ugtP lethal	Sa RN4220 lethal	Bead autofluor
CC(C)(C)C(=O)Nc1cc(S(=O)(=O)N2CCCCC2)ccc1N1CCCCC1	4	0	-16	-1	1	2.2	5303
COc1ccccc1NC(=O)CCNS(=O)(=O)c1ccc2c(c1)CCN2C(C)=O	16	11	2	5	2	4.6	4966
C=CCOc1ccc(/C=C2\SC(=S)N(CCC(=O)O)C2=O)cc1	12	3	80*	-6	17	5.0	4158
CNC(=O)Cn1nc(-c2ccc(Cl)cc2)c2ccccc2c1=O	6	-6	7	4	18	5.6	3089
O=C(NCCSc1ccccn1)c1ccc(Cl)cc1	5	20	-55	1	-6	1.2	3529
Cn1c(N)c(C(=O)COC(=O)C2=NNC(=O)CC2)c(=O)n(C)c1=O	8	-6	-10	-8	-2	0.0	3368
COC(=O)NNC(=O)c1ccc(C(C)(C)C)cc1	3	5	-12	3	11	7.2	2385
Cc1[nH]c2ccccc2c1SCc1ccccc1	/	/	-6	3	/	/	5956
O=C(CN(Cc1ccccc1)C(=O)CNS(=O)(=O)c1ccccc1)NCC1CCCO1 (stereo unspecified)	5	8	-38	6	7	0.5	3749
Cc1nc(N2CCN(C)CC2)c2cc(-c3ccccc3)sc2n1	22	7	-25	4	8	7.8	4259
Cc1nc2ncnn2c(C)c1CCC(=O)N1CCc2ccccc2C1	1	9	2	3	-3	1.7	11180
CCCc1cc(=O)[nH]c(SCC(=O)Nc2ccc(N3CCCCC3)cc2)n1	13	4	-13	/	9	1.5	2934
Nc1nc2nc(-c3ccccc3)cc(=O)n2[nH]1	4	3	-3	-13	10	-1.7	3282
COc1ccc2sc(NC(=O)NC(=O)c3c(Cl)cccc3Cl)nc2c1	-6	2	-5	-8	-20	2.8	4377
O=C(CN1C(=O)c2ccccc2C1=O)N(CCO)Cc1ccccc1	-2	3	-8	7	6	4.0	4236
CC(C)Oc1ccc(CC(=O)NNC(=S)Nc2ccccc2)cc1	2	2	-29	-5	12	3.7	4365
O=C(c1ccc(F)cc1)N1CCC(N2CCCCCC2)CC1	-9	-2	-8	-9	-5	0.4	16826*
CCCCN1CCC2C=CCC(C(=O)NCc3ccc(OC)cc3)C2C1=O (stereo unspecified)	21	16	/	/	1	3.1	/
O=c1oc2ccccc2cc1-c1cn2cccnc2n1	13	6	-20	8	5	4.4	10050
CN(C(=O)c1coc(=O)c2ccccc12)c1ccc(Br)cc1	-2	-2	9	-3	6	5.1	3809
CC(=O)c1c(N)c(C#N)c(C)n1-c1ccc(Br)cc1	25	6	-4	4	5	-9.5	2571
CC1CCCCN1C(=O)C12CCC(C)(C(=O)C1)C2(C)C (stereo unspecified)	15	2	-37	1	5	0.9	10999
COC(=O)c1sccc1OC(C)C(C)=O (stereo unspecified)	6	18	-9	-4	-7	-1.5	/
O=C(N/N=C/c1ccc(Br)s1)c1ccc([N+](=O)[O-])cc1	/	/	14	1	/	/	4329
O=C(N/N=C/c1ccc(N2CCOCC2)cc1)c1ccccc1NS(=O)(=O)c1cccs1	/	/	-14	0	/	/	4506
CCOC(=O)N1CCN(S(=O)(=O)c2cccc3nonc23)CC1	21	7	-9	-13	2	5.8	4185
CC(=O)Nc1ccc(-c2cn3cccnc3n2)cc1	-5	-3	-52	1	1	-1.9	11974
NC(=O)Cn1nc(C(F)(F)F)c2c1CCCC2	1	9	-9	1	3	7.5	4398
O=C(CSc1nc2ncc(Br)cc2[nH]1)c1ccc([N+](=O)[O-])cc1	-5	6	-8	-5	-16	-1.9	2555
